# UUG fidelity: yeast start codon fidelity modulation. S. cerevisiae UUG-firefly luciferase reporter, luminescence/redox ratio. activity score, % at 18.7 µM. 0.13% of 350,000 active. AID 602363;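 active = replicate mean at a twofold rise or more, about +100% in these data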;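 also: firefly luciferase made from a UUG start codon reports start codon fidelity; reporter light over untreated wells divided by growth signal over untreated wells; some hits fall short of that in this replicate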
# eIF4H FP inh: inhibitors of RNA binding by human eIF4H. eIF4H fluorescence polarization binding assay. AID 2012. 0.94% of 290,000 active. Q15056. inhibition, % at 35 µM;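 active = 50% or more with normal probe brightness, or confirmed in later tests; inconclusive = above 50% with abnormal brightness, or retests that disagree; inactive = below 50% or failed in later tests; about a fifth of its hits are not listed in these tables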;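 also: calls also rest on retests at 20 µM and on dose response follow-up; 0% = protein and probe with vehicle and 100% = probe without protein; strong numbers were not always called active; many hits fall short of the cut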
# CSC inhib: blocks cancer stem cells. inhibition, % at 7.5 µM. cancer stem cell-like cells viability, luminescence. 1.1% of 300,000 active;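 active = mean at 75% or more and at least half the replicates too; inconclusive = mean and replicates disagree; tested in HMLE shEcad cells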;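 also: 0% = median of negative and 100% = median of positive control wells; the first replicate is given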
# MT1-MMP act inh: MT1-MMP (human) activation inhibition. 0.061% of 360,000 active. GFP/RFP ratio change, % at 20 µM. P50281. HT1080 RFP-PRO-GFP cells, GFP/RFP ratio fluorescence, overnight; percent of plate control window, DMSO zero. AID 651647;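 active = GFP/RFP ratio change of at least 30% with cell ATP level not reduced by more than half and red fluorescence within 50% of control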; also: strong numbers were not always called active
#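 Assay system: HT1080 RFP-PRO-GFP cells. Benchmarks: DMSO vehicle wells and RFP-L50D-GFP reporter cell wells. Times: overnight cell settling, then overnight compound exposure, 37 °C, 5% CO2. Compound: 20 µM single dose, 1% DMSO. Read-out basis: GFP/RFP fluorescence ratio.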
# HIV Env fusion: inhibitors of HIV Env-mediated cell fusion; HeLa-JRFL Env/CEM21 cell fusion, luciferase; inhibition, % at 12.3 µM; 1.1% of 360,000 active; AID 651610;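 active = mean replicate inhibition score of at least 50 and every replicate individually at or above 50; inconclusive = only one of the two criteria met; inactive = mean below 50 and not all replicates reaching 50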;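 also: 0% = plate neutral controls and 100% = maraviroc near 300 nM; one replicate is shown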
# Rce1 inh: blocks yeast Ras-converting enzyme; Q03530; yeast membranes, quenched prenylated peptide cleavage fluorescence; calls only; 0.27% of 290,000 active;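 active = fall in fluorescence gain of 50% or more versus controls, with final raw signal at or below 3038400; inconclusive = same 50% fall but final raw signal above 3038400; inactive = fall in fluorescence gain under 50%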;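 also: plate controls were neutral control wells for no effect and wells lacking membranes for full effect; tested at 10 µM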
# Target sequence (Q03530 whole entry, looked up): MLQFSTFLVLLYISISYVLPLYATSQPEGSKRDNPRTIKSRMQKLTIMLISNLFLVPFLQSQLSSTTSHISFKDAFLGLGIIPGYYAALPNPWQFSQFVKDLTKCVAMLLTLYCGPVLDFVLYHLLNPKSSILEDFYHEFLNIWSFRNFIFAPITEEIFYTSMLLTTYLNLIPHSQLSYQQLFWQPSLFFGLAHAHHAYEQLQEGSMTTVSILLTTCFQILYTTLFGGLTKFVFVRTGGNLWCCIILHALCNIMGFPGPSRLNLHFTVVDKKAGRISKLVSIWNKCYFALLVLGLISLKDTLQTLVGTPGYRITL
# PABP FP inh: blocks human PABP binding to poly(A) RNA. P11940. 1% of 290,000 active. inhibition, % at 35 µM. fluorescence polarization;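 active = 50% or more with normal probe brightness, or confirmed in later tests; inconclusive = above 50% with abnormal brightness, or retests that disagree; inactive = below 50% or failed in later tests; about a fifth of its hits are not listed in these tables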;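 also: calls also rest on retests at 20 µM and on dose response follow-up; controls were probe without protein and protein plus probe with vehicle; some compounds called inactive have numbers as strong as hits; many hits fall short of the cut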
# Target sequence (P11940 whole entry, looked up): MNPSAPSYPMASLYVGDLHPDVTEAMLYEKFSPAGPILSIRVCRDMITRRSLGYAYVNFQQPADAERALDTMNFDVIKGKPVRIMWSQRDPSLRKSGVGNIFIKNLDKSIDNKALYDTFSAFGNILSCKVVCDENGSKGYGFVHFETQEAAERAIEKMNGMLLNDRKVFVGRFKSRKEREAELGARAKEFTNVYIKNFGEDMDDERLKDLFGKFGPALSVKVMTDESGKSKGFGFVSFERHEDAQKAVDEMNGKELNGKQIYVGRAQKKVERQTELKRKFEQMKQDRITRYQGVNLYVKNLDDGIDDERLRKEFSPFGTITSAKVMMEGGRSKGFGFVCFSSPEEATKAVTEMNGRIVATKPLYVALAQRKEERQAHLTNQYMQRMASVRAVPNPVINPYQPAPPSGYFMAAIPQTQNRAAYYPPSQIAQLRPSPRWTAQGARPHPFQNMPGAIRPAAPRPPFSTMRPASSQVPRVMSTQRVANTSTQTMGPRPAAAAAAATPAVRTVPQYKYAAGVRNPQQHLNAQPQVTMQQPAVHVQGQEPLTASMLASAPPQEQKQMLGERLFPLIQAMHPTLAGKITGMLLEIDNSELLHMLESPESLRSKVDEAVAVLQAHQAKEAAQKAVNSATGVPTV
# eIF4H FP inh retest: also measured in eIF4H FP inh; calls as there; inhibition, %; compound at 20 µM; confirmation average;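 mean of two retest wells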
# PABP FP inh retest: second read-out of PABP FP inh, no call of its own (marks repeat the call); inhibition, %; compound at 20 µM; confirmation repeats;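 mean of two retest wells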
# MT1-MMP act inh RFP: recorded beside MT1-MMP act inh, whose call it bears; RFP signal change, %; measured here: RFP expression control read;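 0 = vehicle wells; hits needed this value within 50% of zero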
# * marks the source's active call; other numbers are inactive results; i = inactive; ? = inconclusive; / = no result given.
SMILES,UUG fidelity,eIF4H FP inh,CSC inhib,MT1-MMP act inh,MT1-MMP act inh RFP,HIV Env fusion,Rce1 inh,PABP FP inh,others
COc1cc(/C=C(/C#N)c2ccc(C)cc2)ccc1Oc1ccc([N+](=O)[O-])cn1,-8,-11,37,-9,-17,/,i,-1,
CCN(CC)C(=O)CSc1nnc(CNc2ccc(F)cc2)o1,-22,-2,0,3,6,4,i,-9,
C/C(=N\O)C(C)(C)Nc1cccc(Br)c1,/,-11,-3,0,-9,5,i,-2,
COc1ccc(S(=O)(=O)Cc2ccc(C(=O)N3CCN(c4ccccc4F)CC3)o2)cc1,-11,-6,-9,-2,1,-24,i,-3,
O=C(Nc1ccc(-c2nc3ccccc3c(=O)o2)cc1)c1ccco1,-17,28,1,7,6,/,i,3,
CCOC(=O)N1CCN(C(=O)c2cccc(N3C(=O)NC4CC3(C)Oc3ccc(Cl)cc34)c2)CC1 (configuration not stated),-6,-1,-20,0,-6,16,i,7,
CN(C)c1ccc(/C=C/c2nc3ccccc3c(=O)[nH]2)cc1,/,34,84*,-48,0,17,i,-7,
COc1ccc(-c2nsc3c(N4CCN(C(=O)c5ccco5)CC4)ncnc23)cc1,-2,6,0,5,-2,-11,i,12,
O=C(Cn1nnc2ccccc21)N/N=C/c1ccco1,/,62,0,2,6,-14,i,-11,eIF4H FP inh retest=-2;PABP FP inh retest=-1
COc1cnn(-c2ccc([N+](=O)[O-])cc2)c(=O)c1Cl,-8,/,7,-1,-1,-11,i,/,
CCc1nn(CCCC(=O)N2CCN(c3ccc(OC)cc3)CC2)c(=O)c2cc3occc3n12,/,21,6,4,-4,8,i,2,
COc1ccccc1NC(=O)c1cc[n+](C)cc1,-21,/,2,2,1,-15,i,/,
COc1cc(C2NC(=O)N(C)C3=C2C(=O)CCC3)cc(OC)c1OC (configuration not stated),-7,22,10,0,1,/,i,-7,
CC(C)(C)c1ccc(Oc2ncccc2NC(=O)c2cccs2)cc1,-5,-3,10,0,-6,14,/,-7,
O=C(CN(C(=O)c1csnn1)c1cccc(C(F)(F)F)c1)NCc1ccc(F)cc1,-25,-9,-7,0,0,0,/,-10,
COc1ccc(-n2nc(C(=O)NCc3cc(OC)ccc3OC)c3c4ccccc4n(C)c3c2=O)cc1,/,-1,/,-2,1,4,i,-6,
COc1cc(OC)cc(C(=O)N[C@H](C(=O)Nc2nc3ccccc3[nH]2)C(C)C)c1,-12,-3,/,9,-9,-237,i,-2,
Cc1nn2c(c1-c1ccc(Cl)cc1)N=C(c1ccco1)CC2c1ccccc1 (configuration not stated),-14,16,0,-42,1,/,i,-11,
O=C(NCc1cccnc1)C(=O)NCC(c1ccco1)N1CCN(c2ccc(F)cc2)CC1 (configuration not stated),-12,-4,-6,3,-6,/,i,-8,
CC(=O)Nc1c(I)c(C(=O)N[C@H]2C(O)O[C@H](CO)[C@@H](O)[C@@H]2O)c(I)c(N(C)C(C)=O)c1I (some centres not stated),-9,/,-4,3,3,18,/,/,
CCCC(=O)Nc1nnc(SCC(=O)N2CCN(c3ccccc3)CC2)s1,12,4,-7,8,5,11,i,27,
Nc1nnc(SCC(=O)N2CCN(c3ccccc3)CC2)n1-c1ccccc1,-19,-3,/,-1,-6,4,i,-11,
CCc1ccccc1NC(=O)N1CCc2ccccc2C1,-9,11,-10,-2,5,4,i,4,
CCOCCCN(C(=O)c1snc(C(N)=O)c1N)C(C(=O)NC1CCCC1)c1ccc(OC)cc1 (configuration not stated),-10,5,/,-1,0,-1,i,-4,
NC(Cc1ccc(C(F)(F)F)cc1)c1csc(NC(=O)Nc2ccccc2Cl)n1 (configuration not stated),-4,/,/,-5,-5,58*,/,/,
O=C(Nc1ccccc1F)C1CCN(C(=O)Cc2ccccc2)CC1,1,3,12,7,5,-42,i,-1,
N#Cc1ccc(C23CC4(C2)[C@H](CN(CC2CCCCC2)[C@@H]4c2ccccc2)C3c2ccccc2)cc1 (some centres not stated),-15,-8,41,-4,-5,-68,i,-1,
CC(C)N(C(=O)COC(=O)c1cccc(S(=O)(=O)N2CC3(C)CC2CC(C)(C)C3)c1)C(C)C (configuration not stated),7,/,/,-1,-8,8,/,/,
O=C(Nc1ccccc1NC(=O)c1ccccc1F)c1ccccc1F,3,-8,-10,0,4,-4,i,-8,
Cc1cccc2cc3c(N)c(C(=O)N4CCc5ccccc54)sc3nc12,-23,31,7,-153,-13,-66,i,6,

# 6 entries picked at random from those above, as already listed:
SMILES,UUG fidelity,eIF4H FP inh,CSC inhib,MT1-MMP act inh,MT1-MMP act inh RFP,HIV Env fusion,Rce1 inh,PABP FP inh,others
CC(=O)Nc1c(I)c(C(=O)N[C@H]2C(O)O[C@H](CO)[C@@H](O)[C@@H]2O)c(I)c(N(C)C(C)=O)c1I (some centres not stated),-9,/,-4,3,3,18,/,/,
O=C(NCc1cccnc1)C(=O)NCC(c1ccco1)N1CCN(c2ccc(F)cc2)CC1 (configuration not stated),-12,-4,-6,3,-6,/,i,-8,
NC(Cc1ccc(C(F)(F)F)cc1)c1csc(NC(=O)Nc2ccccc2Cl)n1 (configuration not stated),-4,/,/,-5,-5,58*,/,/,
Cc1cccc2cc3c(N)c(C(=O)N4CCc5ccccc54)sc3nc12,-23,31,7,-153,-13,-66,i,6,
CCOCCCN(C(=O)c1snc(C(N)=O)c1N)C(C(=O)NC1CCCC1)c1ccc(OC)cc1 (configuration not stated),-10,5,/,-1,0,-1,i,-4,
Nc1nnc(SCC(=O)N2CCN(c3ccccc3)CC2)n1-c1ccccc1,-19,-3,/,-1,-6,4,i,-11,

# The list goes on:
SMILES,UUG fidelity,eIF4H FP inh,CSC inhib,MT1-MMP act inh,MT1-MMP act inh RFP,HIV Env fusion,Rce1 inh,PABP FP inh,others
COc1ccccc1CC(=O)N(Cc1ccccc1)c1cccc(C)c1,-4,-11,9,-4,-2,17,i,2,
CCC1(c2ccccc2)NC(=O)N(CC(=O)NC2CCCC2)C1=O (configuration not stated),-2,/,/,-2,4,-13,/,/,
Cc1ccc(N2CCN(C(=S)c3ccc(-c4cccc([N+](=O)[O-])c4)o3)CC2)cc1,1,-2,-5,2,3,-10,i,0,
O=C(Nc1nnc([C@H]2C[C@H](O)[C@@H](CO)O2)s1)Nc1cccc2c1CCCC2,-9,/,/,-1,1,6,/,/,
N#CCCn1cc(/C=N/O)c(-c2ccc(F)cc2)n1,-14,-8,-3,-3,0,/,i,-3,
O=C(CSc1nc2ccc(Nc3nc(N4CCOCC4)nc(N4CCOCC4)n3)cc2s1)Nc1ccccc1Cl,-12,0,45,-1,-5,12,i,-6,
CCOC(=O)N1CCN(C(=O)c2ccc(Cl)c(S(=O)(=O)N3CCOCC3)c2)CC1,-10,-11,-16,-1,0,-10,i,-5,
COc1ccc(S(=O)(=O)NCc2csc(-c3cccnc3)n2)cc1,-14,0,-5,2,5,-10,i,-6,
CCN(CC(=O)Nc1cccc(OC)c1)C(=O)c1ccc(C)s1,-13,-5,-13,3,3,-38,i,2,
CN1CCN(c2ccc(NC(=O)COc3ccc(Cl)cc3Cl)cc2)CC1,-7,3,?,-7,-9,33,i,-10,
O=C(CNC(=O)c1cccc(F)c1)N/N=C/c1cc(Br)ccc1OC(=O)/C=C/c1ccco1,/,?,/,-3,-7,31,i,-3,PABP FP inh retest=16
CCOC(=O)C(C)(C)N(Cc1ccc(C)cc1)S(=O)(=O)c1ccc(Cl)c([N+](=O)[O-])c1,/,-6,-2,-1,-14,-4,i,-3,
Cc1nn(C)c(C)c1/C=C/C(=O)c1ccccc1,/,12,3,1,-1,-50,i,0,
Cc1ccc(C(=O)CCC(=O)OCC(=O)Nc2cc(S(=O)(=O)N(C)C)ccc2C)cc1,-5,/,/,5,8,3,/,/,
COc1ccc(NC(=O)COc2ccccc2)cc1NC(=O)c1ccco1,-10,0,10,1,3,18,/,6,
COc1ccc(N2C(=O)/C(=C\c3ccco3)N=C2SCC(=O)NC(C)C)cc1Cl,/,32,0,1,0,/,i,-3,
CC(Sc1nn(-c2ccc(F)cc2)c(=S)s1)C(=O)c1c(N)n(C)c(=O)n(C)c1=O (configuration not stated),-40,/,10,9,-12,3,i,/,
CCCNS(=O)(=O)c1ccc(CCC(=O)N2CCCCC2)cc1,-17,9,-10,7,4,20,i,5,
O=C(O)C1CC=CCC1C(=O)NCCCCc1ccccc1 (configuration not stated),/,3,-8,2,6,16,i,-6,
COc1cc(O)c(C(CC(=O)N2CCOCC2)c2cc(OC)c(OC)c(OC)c2)c(OC)c1 (configuration not stated),-14,-6,/,8,-1,5,i,8,
COc1ccc(-n2ccc(=O)c(C(=O)Nc3ccc(S(=O)(=O)Nc4nccs4)cc3)n2)cc1,-15,17,4,-5,-1,10,i,12,
CCC(=O)O/N=C(\N)c1ccc(Oc2cc(C)c(Cl)c(C)c2)c([N+](=O)[O-])c1,/,-4,8,0,-6,12,i,0,
CCc1ccc(N2CC(C(=O)OCC(=O)Nc3ccccc3C)CC2=O)cc1 (configuration not stated),-19,/,/,2,3,-4,/,/,
COCCn1nnnc1C(c1ccc2ncccc2c1)N1CCc2ccccc21 (configuration not stated),-10,0,1,0,3,/,i,4,
CCNC(=S)NNC(=O)c1cc(-c2cccnc2)nc2ccccc12,/,18,31,-1,5,0,i,0,
Cc1noc(NS(=O)(=O)c2ccc(NC(=O)c3cc(S(=O)(=O)Nc4ccc(F)cc4)ccc3Cl)cc2)c1C,1,/,/,-3,4,-6,/,/,
Cc1cccc(C)c1NC(=O)NC1(C(=O)NCCN2CCOCC2)CCCCC1,/,4,-8,5,5,-15,i,0,
O=[N+]([O-])c1ccc(N/N=C/c2sc(N3CCOCC3)nc2-c2ccccc2)c(S(=O)(=O)Nc2ccc(Cl)cc2)c1,/,36,/,-220,-37,17,i,13,
COCCn1c(=O)[nH]c2cc(C(=O)NCCN3CCN(c4ccc(OC)cc4)CC3)ccc2c1=O,-27,4,14,4,-1,-14,/,-6,
Cc1ccc(-n2ccc(=O)c(C(=O)Nc3ccc(S(=O)(=O)Nc4nccs4)cc3)n2)cc1,0,28,-14,3,1,3,i,12,
C(#Cc1ccc(C#CCN2CCCC2)cc1)CN1CCCC1,-12,-2,/,5,2,/,i,17,
FC(F)(F)c1nnc2c(Sc3ccccc3)nc3ccc(Cl)cc3n12,-18,-1,0,2,-24,/,i,8,
CC(NC(=O)c1cccc(S(=O)(=O)N(C)C)c1)C1CC2CCC1C2 (configuration not stated),-1,3,8,-2,0,4,i,2,
C/C(CC(=O)Nc1c(Cl)cccc1C(F)(F)F)=N\NC(=O)c1cnccn1,-13,/,7,-4,5,5,i,/,
CSc1ccccc1NC(=O)COC(=O)Cn1cc(C(F)(F)F)ccc1=O,-1,/,-1,1,3,/,/,/,
COC(=O)N/N=C/c1cn(CCOc2ccc(OC)cc2)c2ccccc12,-2,-4,-3,3,-4,7,i,-4,
Cc1cc(N2CCOCC2)n2nc(C(F)(F)F)c(-c3ccccc3)c2n1,-3,-8,1,0,3,0,i,-6,
Cc1ccc(NC(=O)CCc2nc3ccccc3[nH]2)cc1C,-21,1,2,9,8,5,i,-4,
COc1ccc(-c2nc3c4ccccc4ccn3c2Cc2cccc(F)c2)cc1OC,11,/,/,-8,-5,-205,/,/,
CCN(CC)CCCNC(=O)c1ccc2c(=O)n(Cc3ccc4c(c3)OCO4)c(=S)[nH]c2c1,-17,-6,21,-1,-3,-5,/,-3,
O=C(CS(=O)(=O)c1ccc2ccccc2c1)Nc1ccccc1Cl,/,-1,-6,6,6,/,i,-2,
O=c1cc(CN2CCc3ccccc32)nc2sccn12,-15,19,-2,2,-1,/,i,12,
